Source: PubChem BioAssay
BCLXL inh = inhibitors of human Bcl-xL; GST-Bcl-xL / FITC-Bim BH3 peptide fluorescence polarization; inhibition, % at 10.9 µM; actives 0.7% (n = 320,000); AID 2129;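 active = inhibition above the mean of all tested compounds plus 3 SD, cutoff set per campaign, cut at about 30% in these data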;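 also: 0% = DMSO wells and 100% = unlabeled Bim-BH3 peptide competitor; inhibitors lower millipolarization by displacing the labeled peptide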
Target sequence (Q07817 whole entry, looked up): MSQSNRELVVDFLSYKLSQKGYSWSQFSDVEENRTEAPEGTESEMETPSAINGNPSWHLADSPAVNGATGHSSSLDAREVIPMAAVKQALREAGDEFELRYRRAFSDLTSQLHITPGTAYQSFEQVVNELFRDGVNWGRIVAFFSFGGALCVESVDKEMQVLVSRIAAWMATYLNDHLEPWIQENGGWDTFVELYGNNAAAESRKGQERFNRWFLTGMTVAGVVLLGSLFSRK
PAFAH1B2 inh = PAFAH1B2 (human) inhibition | P68402 | recombinant PAFAH1B2, FP-rhodamine activity probe, fluorescence polarization | inhibition, % at 3.39 µM | actives 1.2% (n = 340,000);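 active = inhibition above the mean of all tested compounds plus 3 SD, cut at about 24% in these data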;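 also: 0% = enzyme with DMSO and 100% = wells lacking PAFAH1B2; many of its hits are not listed in these tables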
Target sequence (P68402 whole entry, looked up): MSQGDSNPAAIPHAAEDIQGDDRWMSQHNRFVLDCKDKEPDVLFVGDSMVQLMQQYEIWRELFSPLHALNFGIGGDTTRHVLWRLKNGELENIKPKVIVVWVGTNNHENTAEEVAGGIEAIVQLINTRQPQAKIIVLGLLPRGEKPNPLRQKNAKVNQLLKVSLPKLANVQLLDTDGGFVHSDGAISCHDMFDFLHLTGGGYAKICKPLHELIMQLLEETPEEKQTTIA
MCL1 BIM primary = inhibitors of human MCL1 binding to BIM-BH3 peptide. Q07820. GST-MCL1 / FITC-Bim-BH3 fluorescence polarization. inhibition, % at 10.9 µM. actives 0.68% (n = 320,000). AID 2057;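 active = inhibition above the mean inhibition of all tested compounds plus 3 SD, set per campaign, cut at about 40% in these data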;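 also: 0% = DMSO wells and 100% = unlabeled Bim-BH3 peptide control; higher means more loss of mP so more displacement of Bim peptide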
GLD-1 TGE inh = GLD-1-TGE RNA interaction inhibition (C. elegans); purified GLD-1 + fluorescein TGE RNA, fluorescence polarization; inhibition, % at 5.96 µM; AID 2280; actives 0.44% (n = 320,000); Q17339;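 active = percent inhibition above a per-plate cutoff, the plate mean of test compounds plus 3 SD, cut at about 30% in these data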;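 also: 0% = DMSO wells with GLD-1 and probe and 100% = wells lacking GLD-1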
PME-1 primary = blocks human protein phosphatase methylesterase 1; recombinant PME-1, FP-Rh probe fluorescence polarization; inhibition, % at 5.9 µM; Q9Y570; actives 0.53% (n = 320,000);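 active = inhibition above the campaign mean of all compounds plus 3 SD, cut at about 26% in these data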;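 also: competitive labeling of PME-1 active site by serine hydrolase directed probe; 0% = PME-1 with DMSO and 100% = wells lacking PME-1 enzyme; inhibitors block probe labeling so polarization falls and inhibition rises; many of its hits are not listed in these tables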
Target sequence (Q9Y570 whole entry, looked up): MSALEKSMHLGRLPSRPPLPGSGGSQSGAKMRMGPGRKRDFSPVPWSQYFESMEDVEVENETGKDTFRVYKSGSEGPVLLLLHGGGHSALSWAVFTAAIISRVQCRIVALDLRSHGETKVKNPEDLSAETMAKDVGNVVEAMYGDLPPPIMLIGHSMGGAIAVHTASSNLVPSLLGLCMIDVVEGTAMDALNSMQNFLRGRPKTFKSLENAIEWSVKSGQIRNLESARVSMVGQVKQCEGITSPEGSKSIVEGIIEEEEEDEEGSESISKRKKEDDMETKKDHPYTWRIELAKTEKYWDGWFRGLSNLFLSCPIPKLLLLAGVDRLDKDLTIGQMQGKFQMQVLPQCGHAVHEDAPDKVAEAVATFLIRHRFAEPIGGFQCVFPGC
Fam108B inh = blocks mouse Fam108B hydrolase in RBBP9 counter-screen; inhibition, % at 9.51 µM; actives 0.33% (n = 300,000); recombinant Fam108B, FP-Rh probe fluorescence polarization;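 active = inhibition above the screen mean inhibition plus 3 SD, computed separately per campaign, cut at about 18% in these data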;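 also: inhibitors lower polarization as less probe binds the enzyme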
AHR act = human AHR activation; P35869; AHR-responsive luciferase reporter cells, luminescence; activation, % at 5 µM; actives 2.5% (n = 320,000); in the data active = activation above about 47%;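 also: 0% = vehicle wells and 100% = reference agonist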
MEX-5 binding = C. elegans MEX-5 TCR-2 RNA binding activity; Q9XUB2; MEX-5/FITC-TCR2 RNA binding, fluorescence polarization; hits give low values; activity score (negative = inhibition of binding), % at 10 µM; actives 0.38% (n = 300,000); AID 1832;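 active = inhibition past about -25% in most replicates, and total fluorescence under double the plate's negative control median, limit read from the data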;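 also: 0% = DMSO and -100% = 5 µM competing unlabeled TCR2 RNA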
* hit, by the source's call; · = not tested or not shown.

SMILES,BCLXL inh,PAFAH1B2 inh,MCL1 BIM primary,GLD-1 TGE inh,PME-1 primary,Fam108B inh,AHR act,MEX-5 binding
O=c1[nH]c(SCc2cccc(F)c2)nc2ccccc12,-1,9,3,0,-2,-2,16,0.8
Cc1c(C)c2c(OCC(=O)NCC(O)c3ccccc3)cc3c(c2oc1=O)CCC(C)(C)O3 (stereo not given),6,9,4,-6,-5,5,15,2.6
Cc1ccc(-n2c(Cc3cccn3C)nnc2SCC(=O)Nc2nnc(C)s2)cc1,-7,4,-9,-3,1,-1,0,1.7
O=C1CCCC(O)=C1C=Nc1ccc2c(c1)oc1ccccc12,-1,9,-3,5,1,-4,9,-3.4
Cc1cccc(Nc2ccccc2C(=O)OCC(=O)N(C)C2CCS(=O)(=O)C2)c1C (stereo not given),-8,1,-4,6,4,-4,0,2.2
C=CCn1c(SCC(=O)c2ccc(NS(=O)(=O)c3ccccc3)cc2)nnc1-c1cccs1,4,5,-2,4,4,0,12,0.7
O=C(O)COc1ccccc1C=NNc1ccc([N+](=O)[O-])cc1S(=O)(=O)Nc1ccc(Cl)cc1,·,10,·,-7,·,·,-1,·
CCc1cc(=O)oc2c3c(cc(OCC(=O)NCCCCCC(=O)O)c12)OC(C)(C)CC3,5,-4,0,4,-2,3,1,-0.6
C=CCn1c(SCC(=O)NC23CC4CC(CC(C4)C2)C3)nc2cc(C(=O)O)ccc2c1=O,4,7,-1,-4,1,0,1,0.7
Cc1c(C)c2c(OCC(=O)N[C@@H](Cc3ccccc3)C(=O)O)cc3c(c2oc1=O)CCC(C)(C)O3,7,96*,4,7,25,-9,0,-3.1
Cc1ccc(NS(=O)(=O)c2cccc(C(=O)NCCc3c[nH]c4ccccc34)c2)c(C)c1,6,5,-3,3,6,6,14,-1.3
Cc1ccc(-c2c(C(=O)NCc3ccc(F)cc3)oc(=O)c3ccccc23)cc1,6,5,1,4,1,-5,4,-1.0
CCN(CC)C(=O)CSc1nc2cc(OC)c(OC)cc2c(=O)n1Cc1ccc(Cl)cc1,7,3,1,-5,0,-3,2,0.4
Cc1c(C)c2c(OCC(=O)NCc3ccccn3)cc3c(c2oc1=O)CCC(C)(C)O3,8,6,2,-11,8,2,5,2.0
CC(C)Cc1ccc(CN2CCCC(NC(=O)CCN3CCCCC3=O)C2)cc1 (stereo not given),0,0,2,2,-7,3,4,0.4
COc1ccc(CNC(=O)COc2cc3c(c4oc(=O)cc(C)c24)CCC(C)(C)O3)cc1,3,27*,1,5,8,-2,6,1.6
O=C(c1ccc(N2CCCCC2)c([N+](=O)[O-])c1)N1CCN(S(=O)(=O)c2ccccc2)CC1,-11,-4,-24,8,5,1,-7,-1.0
CCOc1cc(C#N)ccc1OCC(=O)N1CCN(C(=O)c2cccs2)CC1,-1,9,-3,8,7,·,-1,·
COc1ccc(NS(=O)(=O)c2ccc(N3CCOCC3)c(NC(=O)c3ccco3)c2)cc1,12,-1,15,-2,7,4,-1,-0.2
CC(=O)Nc1ccc(S(=O)(=O)N(C)CC(=O)NNc2c(F)c(F)cc(F)c2F)cc1,·,7,·,3,·,·,2,·
O=C(CCNC(=O)c1ccccc1Cl)Nc1nc(-c2ccc3ccccc3c2)cs1,6,-2,10,1,-9,-8,13,1.7
Cc1ccc(NS(=O)(=O)c2ccc(C(=O)OCC(=O)NCC3CCCO3)cc2)cc1 (stereo not given),3,-3,4,1,6,-5,-1,0.0
Cc1ccc(NS(=O)(=O)c2ccc(-c3coc(C)n3)cc2)c(C)c1,8,3,3,1,0,-3,0,-2.5
O=C(c1ccco1)N(CCC(c1ccccc1)c1ccco1)Cc1ccco1 (stereo not given),0,6,12,-11,-5,0,4,4.0
CC(=O)N1CCCc2cc(S(=O)(=O)Nc3ccc(C)cc3C)ccc21,1,3,1,0,8,-2,4,-0.7
COc1ccc(NS(=O)(=O)c2cccc(NC(=O)COc3ccc(OC)cc3)c2)cc1,3,1,5,-2,5,5,-2,2.0
Cc1noc(C)c1CSc1nc2ccccc2c(=O)n1-c1ccccc1,3,-1,6,-2,6,3,-2,0.7
Cc1cccc(C(=S)N2CCOCC2)n1,6,2,-2,-1,3,·,0,·
CC(C)CN1CCC(=O)N(CCSc2ccccc2)CC1,-13,2,-20,-4,3,-5,8,-1.7
Fc1cccc(Cl)c1CSc1nnnn1-c1ccc2c(c1)OCO2,4,-1,1,2,-2,-6,6,-0.7
CCOC(=O)C1CCN(CC(C)(C)NS(=O)(=O)c2ccccc2)CC1,1,5,-6,-5,0,-2,-2,-2.6
Cc1ccc(CS(=O)(=O)Cc2ccc(C(=O)NCc3cccnc3)o2)cc1,5,-5,-1,4,1,-3,-1,1.5

3 of the entries above in order of their number in MCL1 BIM primary, ascending.
| Structure | MCL1 BIM primary |
| --- | --- |
| CCOC(=O)C1CCN(CC(C)(C)NS(=O)(=O)c2ccccc2)CC1 | -6 |
| Cc1cccc(C(=S)N2CCOCC2)n1 | -2 |
| Fc1cccc(Cl)c1CSc1nnnn1-c1ccc2c(c1)OCO2 | 1 |

Going on with the list.
SMILES,BCLXL inh,PAFAH1B2 inh,MCL1 BIM primary,GLD-1 TGE inh,PME-1 primary,Fam108B inh,AHR act,MEX-5 binding
O=C(/C=C/c1ccc2c(c1)OCO2)N1CCN(c2ccc(Cl)cc2)CC1,5,7,7,3,-8,-2,-2,2.4
O=C(CCc1ccccc1)Nc1ccc(NS(=O)(=O)c2ccccc2)cc1,4,13,3,3,-2,4,3,-2.9
CC(C)(C)C(=O)Nc1cc(S(=O)(=O)Nc2ccc(Cl)cc2)ccc1O,5,18,1,4,1,2,0,-0.6
CC(C)NC(=O)COc1ccc(S(=O)(=O)N(C)Cc2ccccc2)cc1,-6,3,-2,-3,-6,-7,3,0.7
CCNC(=O)CSc1nc2ccccc2c(=O)n1CCCOC(C)C,1,6,-3,2,-4,4,4,-0.4
Cc1cc(F)ccc1S(=O)(=O)Nc1ccccc1C(=O)Nc1ccc2[nH]c(=O)[nH]c2c1,3,4,3,-2,10,10,-3,-2.0
O=C(CSc1nc(=O)n2ccccc2n1)N1CCC(Cc2ccccc2)CC1,1,4,-1,2,2,1,-1,1.0
Cc1cccc2nc(CSc3nc4[nH]ncc4c(=O)n3-c3cccc(Cl)c3)cc(=O)n12,1,0,6,-2,0,4,3,0.4

Shown with two lines to a compound: part of the list above
Values run as follows: BCLXL inh, PAFAH1B2 inh, MCL1 BIM primary, GLD-1 TGE inh, PME-1 primary, Fam108B inh, AHR act, MEX-5 binding
O=C(/C=C/c1ccc2c(c1)OCO2)N1CCN(c2ccc(Cl)cc2)CC1
→ 5, 7, 7, 3, -8, -2, -2, 2.4
O=C(CCc1ccccc1)Nc1ccc(NS(=O)(=O)c2ccccc2)cc1
→ 4, 13, 3, 3, -2, 4, 3, -2.9
CC(C)(C)C(=O)Nc1cc(S(=O)(=O)Nc2ccc(Cl)cc2)ccc1O
→ 5, 18, 1, 4, 1, 2, 0, -0.6
CC(C)NC(=O)COc1ccc(S(=O)(=O)N(C)Cc2ccccc2)cc1
→ -6, 3, -2, -3, -6, -7, 3, 0.7
CCNC(=O)CSc1nc2ccccc2c(=O)n1CCCOC(C)C
→ 1, 6, -3, 2, -4, 4, 4, -0.4

Other entries:
SMILES,BCLXL inh,PAFAH1B2 inh,MCL1 BIM primary,GLD-1 TGE inh,PME-1 primary,Fam108B inh,AHR act,MEX-5 binding
Clc1ccccc1-c1ccc2ncnc(NCc3cccs3)c2c1,·,-2,·,6,·,·,0,·
Cc1ccc(NS(=O)(=O)c2cccc(C(=O)NNC(=O)c3ccco3)c2)c(C)c1,-3,2,-5,0,-5,-4,4,-6.8
CCOc1ccc(NS(=O)(=O)c2ccc(C(=O)N3CCCC(C)C3)cc2)cc1 (stereo not given),1,1,5,7,3,-1,-2,-2.2
Cc1ccc(S[C@@H](CCN2CC[C@H](C)CCC2=O)c2ccccc2)cc1,5,8,1,6,3,-2,0,-2.3
O=C(c1ccco1)c1nc2c(n1O)CCCCC2,5,-3,13,4,6,-2,-1,-1.2
CCOc1ccc(NS(=O)(=O)c2ccc3[nH]cc(C(=O)N(CC)CC)c(=O)c3c2)cc1,5,3,3,1,-4,0,1,·
CC(=O)N(C)c1ccc(OCC(O)Cn2c3ccc(Cl)cc3c3cc(Cl)ccc32)cc1 (stereo not given),1,-6,3,5,-46,-14,1,3.4
Cc1ccccc1NS(=O)(=O)c1ccc(NS(=O)(=O)c2cccs2)cc1,5,6,-1,6,0,4,6,-2.5
N#CC1=C(SCc2ccccc2)NC(=O)CC1c1ccco1 (stereo not given),9,14,9,4,3,4,2,-4.7
CCOC(=O)C1CCN(C(=O)COc2ccc(S(=O)(=O)NC(C)(C)C)cc2)CC1,-2,-7,3,9,-7,-2,-2,0.0
Cc1ccc(NS(=O)(=O)c2ccc(C(=O)N3CCCCCC3)cc2)cc1,7,-4,9,3,7,·,1,·
CCOc1ccc(NS(=O)(=O)c2ccc(C(=O)NCc3ccccn3)cc2)cc1,1,5,-4,7,3,0,-2,-3.8
CC1C(=O)C(C)C(c2ccccc2F)NC1c1ccccc1F (stereo not given),1,2,0,4,9,-1,2,-0.3
CC1CCCC(NC(=O)COC(=O)Cc2ccsc2)C1C (stereo not given),3,10,2,-3,2,0,-2,0.2
O=c1nc(SCc2cccc(C(F)(F)F)c2)nc2ccccn12,0,2,0,1,5,0,1,2.5
COc1ccc(NS(=O)(=O)c2cccc(C(=O)N(C)Cc3ccc(SC)cc3)c2)cc1,7,5,4,0,1,0,2,2.9
O=C(/C=C/c1ccc2c(c1)OCO2)N1CCN(c2n[nH]c(=O)[nH]c2=O)CC1,7,3,-4,-1,3,-3,15,1.9
COc1ccc(NS(=O)(=O)c2ccc3nc(COc4ccc(C#N)cc4)[nH]c3c2)cc1,-4,-7,-3,-3,-19,-4,20,1.2

An excerpt, so the mix of outcomes need not match the whole.
